# Bioassay records from PubChem.
# VDR inh – blocks the human vitamin D receptor; P11473; VDR-SRC2-3 peptide fluorescence polarization, 2 h; Potency, µM, for the others: max response, negative = inhibition, actives largely listed as inhibitors; hit rate 0.93% among 400,000; AID 504847; active = well fitted inhibition curve with a large enough effect; inconclusive = small, poorly fitted or top-dose-only effect, or another doubt; inactive = no such curve, though single readings can be large or run the other way; also: series mostly up to about 120 µM
# Target sequence (P11473 whole entry, looked up): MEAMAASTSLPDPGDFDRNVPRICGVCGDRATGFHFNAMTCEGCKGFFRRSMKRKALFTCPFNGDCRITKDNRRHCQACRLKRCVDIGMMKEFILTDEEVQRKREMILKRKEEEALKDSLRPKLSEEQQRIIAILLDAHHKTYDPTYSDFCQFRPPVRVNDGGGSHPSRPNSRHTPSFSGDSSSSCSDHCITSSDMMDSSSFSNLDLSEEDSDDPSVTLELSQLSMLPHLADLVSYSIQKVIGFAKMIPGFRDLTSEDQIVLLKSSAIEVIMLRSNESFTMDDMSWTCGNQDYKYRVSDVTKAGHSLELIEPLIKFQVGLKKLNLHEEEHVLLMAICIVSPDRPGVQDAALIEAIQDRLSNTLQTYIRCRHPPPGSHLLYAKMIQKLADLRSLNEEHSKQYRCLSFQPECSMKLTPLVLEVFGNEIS
#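 Measured by FP: displacement of SRC2-3 coactivator peptide from VDR by library compounds, following a two-hour ambient incubation.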
# * hit, by the source's call; ? = inconclusive; & = joins results of further samples. % is scaled to controls: 0 for no effect and ±100 for the full control effect; potency is read from the fitted curve at half-maximal effect. An excerpt; count on the stated rates, not on these rows.
VDR inh	smiles
2.9%	CCCN1CCC(=O)N(CCN=[N+]=[N-])CC1
3.3%	Cn1c(=O)oc2cc(S(=O)(=O)N3CCCC(C(=O)Nc4ccc(Br)cc4F)C3)ccc21 (stereo unspecified)
-23.3%	O=C(c1c[nH]c(C(=O)N2CCN(Cc3ccccc3)CC2)c1)C1CCCCC1
-18.2%	O=C(O)c1ccc2nc(-c3ccccc3)sc2c1
-1.1%	O=C(Nc1ccc2c(c1)OCCO2)NC1(C(F)(F)F)Oc2ccccc2O1
4.5%	Oc1cccc(Nc2cc(-c3ccccc3)ncn2)c1
-0.4%	CN1CC(c2ccccc2)C2(COc3ccccc3C2=O)C12C(=O)Nc1ccccc12 (stereo unspecified)
11.8%	COc1ccc(CCC(=O)NCCc2csc(-c3cccc(F)c3)n2)cc1
-20.3%	Cc1ccc(S(=O)(=O)N2C[C@@H]3CCCC[C@@H]3[C@@H](C)[C@H]2c2cn(Cc3ccccc3)c3ncccc23)cc1
10.6%	O=C(Cc1ccc(Cl)cc1)Nc1ccc(-c2cc3ccccc3oc2=O)c(Cl)c1
-4.1%	COCCCNC(=O)C1CCCCN1S(=O)(=O)c1ccc(F)cc1 (stereo unspecified)
2.7%	Cc1ccc(-c2c3c(nc4sc(C(N)=O)c(N)c24)CCCC3)o1
-12.7%	O=C(NCCC1CCCCN1S(=O)(=O)c1ccccc1)C(=O)NCc1ccccn1 (stereo unspecified)
-17.3%	CC1=CCC(C(=O)O)(C(=O)N/N=C/c2cccs2)C(c2ccc([N+](=O)[O-])cc2)C1 (stereo unspecified)
-5.6%	CC(=O)c1cc(C)ccc1OC(=O)c1ccncc1
-9.5%	CC1CCc2sc(C(=O)NCc3ccccn3)cc2C1 (stereo unspecified)
-4.6%	O=C1/C(=C/c2ccccc2F)SC(=S)N1CC(=O)N1CCCCC1c1cccnc1 (stereo unspecified)
-7.1%	CCCCCNC(=O)Cc1ccc(S(=O)(=O)N2CCOCC2)s1
10.5%	Cc1cc(=O)[nH]c(SCC(=O)Nc2nnc(SCc3ccccc3)s2)n1
-4.7%	COc1ccc(NC(=O)CN(C2CCCCC2)S(C)(=O)=O)cc1Cl

# (further entries)
VDR inh	smiles
-14.1%	O=C(NCCc1ccccc1)C1CCC(=O)N(Cc2cccc(C(F)(F)F)c2)C1 (stereo unspecified)
1.2%	COc1cc(NS(=O)(=O)c2cc3c(cc2C)n(C)c(=O)c(=O)n3C)cc(OC)c1
-20.4%	COc1ccc(OCCCC(=O)NCCc2ccccc2)cc1
9.4%	Fc1ccc(CN(C2=NCCN2)c2c(Cl)cccc2Cl)cc1
10.6%	CCOc1ccc(NC(=O)C2CCN(c3nnc(C)c4c(C)n(-c5ccccc5)nc34)CC2)cc1
-6.9%	COc1cc(C2NC(C(=O)O)Cc3c2[nH]c2ccccc32)cc(OC)c1OC (stereo unspecified)
-6.2%	O=C(Nc1cccc(-c2nc3cccnc3s2)c1)c1ccc(Cl)nc1
4.2%	O=C(OCN1C(=O)c2ccccc2C1=O)c1cccc(OC(F)F)c1
-4.1%	N#CCCCSc1ncccc1-c1nc2ccccc2[nH]1
18.5%	Cc1ccc(-n2nc(C)c3c(C)c(CCC(=O)Nc4ccc(CN5CCCC5)cc4)c(C)nc32)cc1
-12.2%	Cc1ccsc1/C=C1/CN(C)Cc2c1nc1ccccc1c2C(=O)O
14.4%	C=C(C)Cn1c(CCNC(=O)c2ccco2)nc2ccccc21
-14.3%	O=C(NC1CCCC1)C(c1ccncc1)N(Cc1cccs1)C(=O)c1csnn1 (stereo unspecified)
-25.6%	O=C(Nc1ccccc1)Nc1ccc2nnsc2c1
4.0%	CCC(=O)N1CCN(c2ccc(NC(=O)c3c(F)c(F)c(OC)c(F)c3F)cc2)CC1
13.5%	CN(c1ccccc1)S(=O)(=O)c1ccc(C(=O)Nc2nnc(C3CC3)s2)cc1
2.3%	COC(=O)C1=C(C)NC(C)=C(C(=O)OC)C1c1ccc(C)o1
9.1%	COc1ccc(/C=C/c2cc(C(=O)O)c3ccccc3n2)cc1
-3.1%	COc1ccc(C(CNC(=O)c2ccc(S(=O)(=O)Nc3ccccc3C)cc2)N2CCOCC2)cc1 (stereo unspecified)
-4.2%	O=C(Nc1ccc(F)cc1)N1CCN(C(=O)C2CCCO2)CC1 (stereo unspecified)

# New compounds follow
VDR inh	smiles
4.8%	Cc1nn(-c2ccccc2)c(C)c1C(=O)OC(C)C(=O)NC1CCCCC1C (stereo unspecified)
1.6%	Cc1ccc(S(=O)(=O)N2CCN(CC(=O)N/N=C/c3ccc(Br)s3)CC2)cc1
-5.8%	CCC(Cn1nnc2ccccc2c1=O)NC(=O)Nc1ccc(C)c(C)c1 (stereo unspecified)
-4.5%	COc1ccc([C@@H]2[C@@H]3C(=O)N(C(C)(C)C)C(=O)[C@@H]3[C@]3(Cc4ccc(Cl)cc4)C(=O)N(c4cccc(C)c4)C(=O)N23)cc1
-3.9%	CCCCN(Cc1ccco1)C(=O)Cn1ncc2c([nH]c3ccccc32)c1=O
0.5%	CCCNC(=O)C1CCC(CNS(=O)(=O)c2cccc3nsnc23)CC1 (stereo unspecified)
11.3%	c1ccc2c(Cn3ccnc3)c[nH]c2c1
-8.9%&19.3%	Cc1c(C)c2c(c(C)c1O)CCC(C)(CCCC(C)CCCC(C)CCCC(C)C)O2 (stereo unspecified)
-1.6%	COCC(=O)N1CCC2(CC1)CN(C(=O)Nc1ccc(OC)cc1)C2
?	COCCn1c(SCC(=O)Nc2cccc(S(N)(=O)=O)c2)nc2cc(Cl)ccc2c1=O
-2.7%	COc1cc(C(=O)N2CCN(c3ccccc3F)CC2)ccc1OCC(=O)N1CCOCC1
20.0%	CCCn1c(SCC(=O)Nc2nnc(C)s2)nnc1C1CC1
-0.8%	Nc1nc2c(ncn2C2C[C@H](O)[C@@H](CO)O2)c(=O)[nH]1 (stereo partly specified)
-0.5%	Cc1cccc(NC(=O)c2c(C)oc3ncnc(N4CCCCC4)c23)c1C
12.4%	COc1cccc(C(C)N(C)Cc2nc(COc3ccccc3)no2)c1 (stereo unspecified)
5.2%	O=C(c1cc2ccccc2o1)N1CCN(C/C=C/c2ccccc2)CC1
-12.6%	COc1ccccc1C(=O)NCC(=O)N1CCN(c2ncccn2)CC1
7.1%	C[C@H](C(=O)O)c1n[nH]c(=O)c2ccccc12
-7.6%	CCOc1ccc(C(=O)c2cn(CC(=O)Nc3ccc(OC)cc3)c3cc4c(cc3c2=O)OCO4)cc1
-29.4%	C=CCn1c(SCC(C)=O)nc2sc3c(c2c1=O)CCC3

# The last six entries of the part before are carried over, then new ones follow.
VDR inh	smiles
12.4%	COc1cccc(C(C)N(C)Cc2nc(COc3ccccc3)no2)c1 (stereo unspecified)
5.2%	O=C(c1cc2ccccc2o1)N1CCN(C/C=C/c2ccccc2)CC1
-12.6%	COc1ccccc1C(=O)NCC(=O)N1CCN(c2ncccn2)CC1
7.1%	C[C@H](C(=O)O)c1n[nH]c(=O)c2ccccc12
-7.6%	CCOc1ccc(C(=O)c2cn(CC(=O)Nc3ccc(OC)cc3)c3cc4c(cc3c2=O)OCO4)cc1
-29.4%	C=CCn1c(SCC(C)=O)nc2sc3c(c2c1=O)CCC3
?	O=C(OCn1ncc(Cl)c(Cl)c1=O)c1cccc(C(F)(F)F)c1
6.9%	OC(CSc1c(Cl)cccc1Cl)CN1CCN(c2ccccc2F)CC1 (stereo unspecified)
7.2%	O=C(COc1ccccc1)N1CCN(c2ncnc3c2cnn3-c2ccccc2)CC1
?	COCCn1c(SCCN2CCOCC2)nc2c1c(=O)[nH]c(=O)n2C
-9.3%	CC(C)[C@@H](C(=O)NC1CC1)N1C(=O)N2CCc3c([nH]c4ccccc34)[C@@]2(C)C1=O
-1.0%	Cc1ccc(OCc2nnc(SCC(=O)N3C(C)CCCC3C)o2)cc1 (stereo unspecified)
1.2%	COc1ccc(-n2cnc3cc(C(=O)NCC4CCCO4)ccc32)cc1 (stereo unspecified)
-3.5%	COc1ccc(CN2C(=O)c3cccc4cccc(c34)C2=O)cc1
-6.4%	CC(C)Cc1ccc(S(=O)(=O)N2CCOCC2)cc1
-16.6%	O=C(O)C1(Nc2ccc(Cl)cc2)CCCC1
-22.1%	CC(C)(C)S(=O)(=O)/C(C#N)=N/Nc1ccc(S(N)(=O)=O)cc1
-9.0%	COc1ccc(NC(=O)C(=O)NCCc2csc(-c3ccc(Cl)cc3)n2)cc1
-13.5%	CCOc1cc(C(=O)OC(C)C(=O)Nc2ccccc2OC)ccc1OCC(=O)N1CCOCC1 (stereo unspecified)
14.6%	CCOC(=O)c1ccc(NC(=O)c2nsc3ccccc23)cc1
2.9%	CCC1CCCCN1S(=O)(=O)c1cc2c(cc1C)NC(=O)CO2 (stereo unspecified)
17.0%	OCCC1CN(Cc2cccc3nonc23)CCN1C1CCCCC1 (stereo unspecified)
-5.2%	O=c1[nH]c2cc(Cl)c(O)cc2o1
-24.4%	O=C(c1noc2c1CCCC2)N1CCN(c2ccccc2)CC1
-17.5%	Cc1cc(NC(=O)COC(=O)COc2ccc(Cl)cc2C)c([N+](=O)[O-])cc1C
-5.4%	CCC(Oc1ccccc1F)C(=O)Nc1c(C(=O)c2ccccc2)oc2ccccc12 (stereo unspecified)

# Some of these compounds in order of SMILES length, lowest first:
VDR inh	smiles
-5.2%	O=c1[nH]c2cc(Cl)c(O)cc2o1
-16.6%	O=C(O)C1(Nc2ccc(Cl)cc2)CCCC1
-6.4%	CC(C)Cc1ccc(S(=O)(=O)N2CCOCC2)cc1
?	O=C(OCn1ncc(Cl)c(Cl)c1=O)c1cccc(C(F)(F)F)c1
7.2%	O=C(COc1ccccc1)N1CCN(c2ncnc3c2cnn3-c2ccccc2)CC1
-9.3%	CC(C)[C@@H](C(=O)NC1CC1)N1C(=O)N2CCc3c([nH]c4ccccc34)[C@@]2(C)C1=O

# (listing goes on)
VDR inh	smiles
7.94µM*	COc1ccc(/C=C/C(=O)c2cc(O)ccc2O)cc1
2.1%	CCOc1ccc(NC(=O)CN2CCN(CC(=O)Nc3cccc(F)c3)CC2)cc1
4.0%&9.3%	COc1ccc(-c2cc(C)no2)cc1S(=O)(=O)N1CCN(c2ccccc2F)CC1
-17.4%	O=C(Cc1ccccc1)NN1C(=O)C2C3C=CC(C3)[C@@H]2C1=O (stereo partly specified)
10.0%	COc1cc(SC)ccc1C(=O)Nc1ccc2c(c1)CCC2
-3.1%	Cn1nccc1C(=O)c1ccc(Cl)cc1
9.6%	Cc1cccc(-c2noc(CN(C)C(=O)c3ccco3)n2)c1
-28.3%	O=C(COc1ccccc1[N+](=O)[O-])Nc1cccc(S(=O)(=O)N2CCCC2)c1
4.2%	CCCCOc1ccc(C(=O)Nc2nnc3n2CCS3)cc1
-6.9%	COCCCNC(=O)CN1C(=O)c2cccc3cccc1c23
10.1%	CCCCCCCNC(=O)C1(CC2CC(c3ccc(Cl)cc3)=NO2)CCN(C(=O)c2cc(OCC)c(OCC)c(OCC)c2)CC1 (stereo unspecified)
22.4µM*	O=c1[nH]c(/C=C/c2ccccc2)c([N+](=O)[O-])c(=O)[nH]1
-12.5%	CCN(CC)S(=O)(=O)c1ccc2c(c1)N(CC(=O)Nc1cccc(C(C)=O)c1)C(=O)CO2
4.1%	Cc1nc(=S)n(-c2ccccc2)[nH]1
-24.8%	CC1(CCc2ccccc2)NC(=S)N(c2ccccc2)N1 (stereo unspecified)
1.8%	N[C@@H](Cc1ccc(O)cc1)C(=O)Nc1ccc2ccccc2c1
-1.9%	COCCn1c(=O)c(-c2ccc(OC)cc2)nc2cnc(N3CCNCC3)nc21
-9.3%	C#CCOCCOCCOCCNc1nc(N2CCN(C(=O)[C@H](CCCN=C(N)N)n3cc(C(N)[C@H](C)CC)nn3)CC2)nc(N2CCN(C(=O)[C@H](CCCN=C(N)N)n3cc(C(N)[C@@H](C)CC)nn3)CC2)n1 (stereo partly specified)
22.2%	C=CCNC(=O)c1ccccc1NC(=O)c1cccc2ccccc12
-20.2%	COc1cccc(C2CC(c3ccc(Cl)cc3Cl)n3nc(N)nc3N2)c1 (stereo unspecified)

# Next entries
VDR inh	smiles
2.8%	CCc1ccc(-c2ccc3nnc(SCC(N)=O)n3n2)cc1
6.7%	COc1cccc(CNC(=O)N2CCc3c(sc4c3CCCC4)C2c2ccc(F)cc2)c1 (stereo unspecified)
-27.5%	CCCCc1ccc(NC(=S)Nc2ccc(Cl)c(S(=O)(=O)N(C)C)c2)cc1
0.6%	CN(CCc1ccccc1)C(=O)c1ccc(NC(=O)Cc2ccc(NC(=O)C3CCCN(C(=O)C4CC4)C3)cc2)cc1 (stereo unspecified)
-17.6%	C[C@H](CO)N1C[C@H](C)[C@H](CN(C)Cc2ccccc2)Oc2c(NC(=O)Nc3ccc(F)cc3)cccc2C1=O
-1.9%	Cc1cccc(S(=O)(=O)N2CCC(CO)(Cc3ccccc3)CC2)c1
3.7%	CCN(CC(=O)NCc1cccs1)C(=O)c1ccc(NS(=O)(=O)c2ccc(C(C)=O)cc2)cc1
-13.8%	CCCOc1ccc(-c2nc(N3CCCCC3)c3ccccc3n2)cc1
-2.9%	Cc1cccc(CNC(=O)CCCn2c(=O)c3cccn3c3ccc(F)cc32)c1
-1.8%	Cn1c(=O)n(CCc2ccccc2)c(=O)c2c1ncn2Cc1ccccc1
-3.3%	COC(=O)c1sc(N)c(C(=O)OC)c1COC(=O)C1CC(=O)N(Cc2ccco2)C1 (stereo unspecified)
-11.9%	CC(=O)Nc1ccc(S(=O)(=O)NCCC(=O)OC(C)C(=O)c2ccc(C)cc2)cc1 (stereo unspecified)
-19.5%	CC(C)CCN(C(=O)Cc1ccccc1F)c1c(N)n(Cc2ccccc2)c(=O)[nH]c1=O
-8.1%	O=C(c1cccc(F)c1)N1CCN(S(=O)(=O)Cc2ccccc2)CC1
-5.7%	COc1ccc(NC(=O)CSc2nccc(C)n2)cc1
10.6%	CC(=O)c1cccc(NC(=O)CN(Cc2ccccc2)S(C)(=O)=O)c1
13.3%	COc1ccc(C(C(C(=O)c2ccco2)N2CCOCC2)N2CCOCC2)cc1 (stereo unspecified)
?	COc1ccc(-c2ccc(OC(=O)NC3CCS(=O)(=O)C3)cc2)cc1 (stereo unspecified)
0.2%	Cc1cccc(-c2nnc(SCC3CNC(=O)O3)n2-c2ccc(Cl)cc2)c1 (stereo unspecified)
